Screening data from PubChem BioAssay.
NPYLR7 ag = activates Aedes aegypti NPYLR7 receptor; activation, % at 10 µM; HEK293T NPYLR7/Galpha15, GCaMP6s calcium fluorescence; 270,000 compounds, 0.15% hits; in the data active = activation above about 40%;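 note: 0% = vehicle and 100% = reference agonist at the receptor; some compounds past the cut are filed as inactive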
NPYLR7 ag max-min = recorded beside NPYLR7 ag, whose call it bears; activation, %; measured here: Max-Min RFU normalised activation; some inactives read as strong as hits;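 span of the calcium signal over five minutes; 0% = vehicle and 100% = native peptide agonist; compound fluorescence can raise it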
* hit, by the source's call; & = joins results of further samples. Not all compounds are listed. The share of hits here may be higher or lower than overall.

SMILES	NPYLR7 ag	NPYLR7 ag max-min
Cc1ccc(S(=O)(=O)N2CCN(C(=O)CN3C(=O)NC4(CCC(C)CC4)C3=O)CC2)c(C)c1 (stereo not given)	26	16
CCOc1ccc(C(CCc2ccccc2)NC(=O)c2cccnc2)cc1OCC (stereo not given)	4	2
CN(C)C(CNC(=O)COC1CCCC1)c1ccc(Cl)cc1 (stereo not given)	3	3
Cn1nnnc1Sc1nc(-c2ccccc2)c2ccccc2n1	0	40
CN1C(=O)N(c2cccc3ccccc23)C(n2cncn2)C1(C)C (stereo not given)	-2	-6
Cc1cc(C)c2c(c1C(=O)N1CCc3ccccc3C1)CC(C)(C)C2=O	-9	-15
Cc1ccccc1S(=O)(=O)NC(=O)C1CCN(c2ccc(F)c(F)c2)C1=O (stereo not given)	9	10
CC(=O)c1cccc2c1OC(F)(F)C(=O)N2Cc1cccc(F)c1	4	0
c1ccc(-c2noc(CN3CCCC3c3ccccn3)n2)cc1 (stereo not given)	5	2
CC(=O)NC(C(=O)Nc1nc2ccc(F)cc2s1)C(C)C (stereo not given)	1	1
Cc1ccc(NC(=O)c2cc(-c3ccc([N+](=O)[O-])cc3)nn2-c2ccc(Cl)cc2)cc1C	0	7
N=C(N)c1ccc(N2CCN(C3CCN(CC(=O)O)CC3)CC2)cc1	-7	-14
Cc1ncc(CN2CCC(N(C)Cc3nnc(C)n3C)C2)s1 (stereo not given)	0	-1
Cc1nn(CCCl)c(C)c1C(=O)O	-3	-6
Cc1ccn(-c2ccc(N3CCN(C(=O)c4ccc5ccccc5c4)CC3)nn2)n1	-3	-9

Reformatted: 4 of the compounds above
c1ccc(-c2noc(CN3CCCC3c3ccccn3)n2)cc1 (stereo not given)
  NPYLR7 ag: 5
  NPYLR7 ag max-min: 2

CC(=O)NC(C(=O)Nc1nc2ccc(F)cc2s1)C(C)C (stereo not given)
  NPYLR7 ag: 1
  NPYLR7 ag max-min: 1

Cc1ccc(NC(=O)c2cc(-c3ccc([N+](=O)[O-])cc3)nn2-c2ccc(Cl)cc2)cc1C
  NPYLR7 ag: 0
  NPYLR7 ag max-min: 7

N=C(N)c1ccc(N2CCN(C3CCN(CC(=O)O)CC3)CC2)cc1
  NPYLR7 ag: -7
  NPYLR7 ag max-min: -14

Other entries
SMILES	NPYLR7 ag	NPYLR7 ag max-min
CCC(C)N(CC(=O)N(Cc1cccn1Cc1ccc(F)cc1)C1CCCCC1)C(=O)c1cccc(C(F)(F)F)c1 (stereo not given)	-3	2
CC(C)c1ccc(NC(=O)C(C#N)=C2SCC(=O)N2c2ccccc2)cc1	3	2
CN1CCCN(CC(=O)NCc2ccccc2Cn2cccn2)CC1	2	3
CCn1c(C)c(C(=O)CN(Cc2ccco2)C(=O)c2cccc(Cl)c2)c(C)c1C(=O)OC	-14	-5
CCOC(=O)c1cnc2ccccn2c1=O	8	5
O=[N+]([O-])c1ccc(Cl)c(S(=O)(=O)Nc2ccc(Cl)cc2)c1	2	7
Cc1ccc(N(C)S(=O)(=O)c2cc(C(=O)O)ccc2C)c(C)c1	0	0
CC1CCCCC1OCC(=O)N(CC(=O)N(C)C)CC(F)(F)F (stereo not given)	2	2
CC(C)Oc1ccc(C=C2C(=O)NC(=O)NC2=O)cc1	4	3
CCN(CC)S(=O)(=O)c1ccc(OCC(=O)Nc2ccc(S(=O)(=O)N3CCCC3)cc2)cc1	-1	-4
Cc1cn2c3c(=O)[nH]c(=O)n(C)c3nc2n1C(C)C	6	0
CC(C)c1cccc(Nc2nnc(C(O)c3cc(F)c(F)c(F)c3)s2)c1 (stereo not given)	7	7
CN(C)S(=O)(=O)c1ccc(C(=O)Nc2ccc(N3CCCC3)cc2)cc1	1	6
COc1nc(-c2cccc(C(F)(F)F)c2)n(-c2ccc(NC(=O)C3CCC3)cc2)n1	17	22
O=C(CCC1CCN(C(=O)C2Cc3ccccc3O2)CC1)Nc1ccccc1 (stereo not given)	14&-2	1&-2
N#CC(C(=O)Cn1ccccc1=O)c1nc(-c2ccccc2)cs1 (stereo not given)	36	30
CCN(CC)C(=O)Oc1ccc2c(ccn2Cc2cccc(F)c2)c1NC(=O)C1COc2ccccc2O1 (stereo not given)	0	-6
CCOCCNC(=O)c1cc2c(s1)-c1cc(OC)ccc1CC2	3	0
O=C(c1cn(CCc2ccccc2)nn1)N1CCN(C2CCc3ccccc3C2)CC1 (stereo not given)	16	6
COc1ccccc1CCC(=O)Nc1ccc2c(c1)CN(Cc1ccsc1)CC2	7	1
C=CCC(O)(CC=C)c1ccc(CN(CCCOC)Cc2cccs2)o1	-2	5
CC1=NC2=C(C(=O)CCC2)C(c2ccc3c(c2)OCO3)C1C#N (stereo not given)	-2	-5
CN(CCn1ccnc1)c1ccc(-c2nc(Cc3ccc(F)cc3)no2)cn1	9	0
N#Cc1ccc(C=NN2C(=O)CSC2=S)cc1	6	4
Cc1ccc(C)c(NC(=O)CC(=O)NCCc2cnc[nH]2)c1	17	7
CN(c1ccc(S(N)(=O)=O)cc1[N+](=O)[O-])C1CCCCC1	3	-3
Cn1c(=O)c2cc(C(=O)NCC3CCCO3)n(Cc3ccco3)c2n(C)c1=O (stereo not given)	0	-2
Cc1ccc(CCNC(=O)NCC(=O)Nc2ccc(F)cc2)cn1	-6	877
CC(C)(C)c1ccc(COc2coc(CN3CCCN(C(=O)c4c(Cl)cccc4Cl)CC3)cc2=O)cc1	19	6
CC(C)c1nccn1C(C)C(=O)N1C[C@@H]2[C@H](C1)[C@H]1CC[C@@H]2O1 (stereo not given in full)	0	-5
CC(C)c1ccc(CC(=O)N2CCC2(C)C(=O)NS(=O)(=O)c2ccc(F)cc2F)cc1 (stereo not given)	-2	-7
Cc1noc(C)c1CCC(=O)N1CC(=O)N(C2CCCCC2)CC(OCc2cccnc2)C1 (stereo not given)	10	-3
O=C(c1ccccc1F)N1CCCC(OCc2ccc(C(F)(F)F)cc2)C1 (stereo not given)	-7	0
CN(C)CCCN(C(=O)COc1ccc(Cl)cc1Cl)c1nc2ccccc2s1	-3	-5
C=c1cc(C)ccc1=C1NN=C(NC(=O)CCNC(=O)OCC)S1	9	6
CC(=O)N(C)c1ccc2c3c(cccc13)C(=O)N(c1cccc(C)c1)C2=O	0	-1
COc1ccc(C(=O)Nc2cccc(Cl)c2F)cn1	-3	-3
CN1CCCN(c2ncccc2CNC(=O)CCCn2cncn2)CC1	4	2
Cc1ccsc1C(=O)N1CCC1(C)C(=O)NCC(F)(F)F (stereo not given)	5	1
CCc1nc2c(OCC3COc4ccccc4O3)cccn2c1N(C)C(C)=O (stereo not given)	3	-7
C=CCn1c(C)c(C)n2c3c(=O)n(CCc4ccccc4)c(=O)n(C)c3nc12	-2	4
CN(Cc1ccccc1)C(=O)C(C1CCCC1)N1CCN(C(=O)Nc2cccc(Cl)c2)CC1 (stereo not given)	-10	3
CCOC(=O)C1=C(C)OC(=O)C1(NS(=O)(=O)c1ccccc1)C(F)(F)F (stereo not given)	-8	-9
Cc1c(O)ccc2c3c(c(=O)oc12)CCCC3	-2	-2
O=C(N(Cc1cccc(OS(=O)(=O)c2ccc(F)cc2)c1)Cc1ccco1)C12CC3CC(CC(C3)C1)C2	1	-1

Complete entries as entered above.
Cc1ncc(CN2CCC(N(C)Cc3nnc(C)n3C)C2)s1 (stereo not given) across the screens: NPYLR7 ag: 0; NPYLR7 ag max-min: -1
COc1nc(-c2cccc(C(F)(F)F)c2)n(-c2ccc(NC(=O)C3CCC3)cc2)n1 across the screens: NPYLR7 ag: 17; NPYLR7 ag max-min: 22

New compounds follow.
SMILES	NPYLR7 ag	NPYLR7 ag max-min
O=C(c1ccco1)N1CCSC12C(=O)N(Cc1ccc(F)c(F)c1)c1ccccc12 (stereo not given)	-8	10
Cc1ccc(NC(=O)Nc2c[nH]c3ccccc23)c(C)c1	4	-2
CCc1oc(C(=O)N2CCC3(CCOCC3)CC2)cc1CN1CCCC1	2	0
CCOC(=O)n1c(=O)oc2cc(Br)ccc21	0	-2
Cc1ccc2c(c1)CCN1C(=O)CN(C(=O)Nc3ccc4c(c3)OCCO4)CC21 (stereo not given)	-5	-1
COCc1cc(N2CCOCC2)nc(SCc2cccc(C(=O)NC3CC3)c2)n1	-4	-3
CN(Cc1cscn1)C(=O)CC12CC3CC(CC(Br)(C3)C1)C2	16	12
COc1cccc(N2C(=O)CSC2c2cccc(NC(=O)c3cccs3)c2)c1 (stereo not given)	-4	2
CCc1ccc(C(=O)Nc2ccc(Cl)c(C(N)=O)c2)o1	0	0
O=c1c2c3c(sc2ncn1N=Cc1ccc(Br)cc1)CCCC3	-2	-7
CNc1cc(-c2cccc(C(C)=O)c2)ncn1	2	-1
CCCNC(=O)c1ccc(S(=O)(=O)NCCc2ccccc2)o1	-10	-11
Cc1nn(-c2nc(C)c(C)c(=O)[nH]2)c(C)c1CCC(=O)NC(C)CCc1ccccc1 (stereo not given)	6	-1
Cc1ccc(-c2cc3c(=O)n(CC(=O)Nc4ccccc4F)ccn3n2)cc1	4	1
CCOC(=O)c1nn(-c2ccc(F)cc2)c(=O)cc1OCC(=O)Nc1c(C)cc(C)cc1C	10	6

Nothing new here: an excerpt of the list.
SMILES	NPYLR7 ag	NPYLR7 ag max-min
Cc1ccc(S(=O)(=O)N2CCN(C(=O)CN3C(=O)NC4(CCC(C)CC4)C3=O)CC2)c(C)c1 (stereo not given)	26	16
CCOc1ccc(C(CCc2ccccc2)NC(=O)c2cccnc2)cc1OCC (stereo not given)	4	2
CN(C)C(CNC(=O)COC1CCCC1)c1ccc(Cl)cc1 (stereo not given)	3	3
Cn1nnnc1Sc1nc(-c2ccccc2)c2ccccc2n1	0	40

Filtered by structure, the entries above containing bromine (3)
SMILES	NPYLR7 ag	NPYLR7 ag max-min
CCOC(=O)n1c(=O)oc2cc(Br)ccc21	0	-2
CN(Cc1cscn1)C(=O)CC12CC3CC(CC(Br)(C3)C1)C2	16	12
O=c1c2c3c(sc2ncn1N=Cc1ccc(Br)cc1)CCCC3	-2	-7

Remaining list, next part
SMILES	NPYLR7 ag	NPYLR7 ag max-min
CCN1CC(NC(=O)CNS(=O)(=O)c2ccc(F)cc2C)CC1=O (stereo not given)	28	20
COc1cccc(-c2n[nH]c(=S)n2C)c1	-6	-12
Cc1nnc(CN(C)Cc2nc(-c3ccc(C)s3)oc2C)o1	-7	-12
CN(C)CCN1CCN(c2nccn3ccnc23)CC1	5	2
Cc1ccsc1CN(Cc1ccc2c(c1)OCO2)C(=O)CN(CCN1CCCC1)C(=O)CCc1ccccc1	16	23
CNC(=O)[C@@H]1[C@@H](OC(=O)Nc2ccccc2)C(=O)N(C)C12CCN(C(=O)C1CCC1)CC2	22	27
Cn1ncc(N=[N+]([O-])c2cnn(C)c2C(=O)Nc2ccc(Cl)cc2)c1C(=O)Nc1ccc(Cl)cc1	-4	-16
CC1CC1C(=O)NCC(C)(C)NC(=O)OC(C)(C)C (stereo not given)	-1	-3
Cc1ccc(C(NC(=O)c2ccc(C(F)(F)F)[nH]c2=O)c2ccccc2)cc1C (stereo not given)	2	6
COc1ccccc1C(=O)Nc1cccc(NC(=O)CCc2nncn2C)c1	3	0
CN1CCN(CCC=C2c3ccccc3Sc3ccc(S(=O)(=O)N(C)C)cc32)CC1	-10	-16
O=C(c1cc(-c2ccc(F)cc2)nc2cc(-c3ccc(Cl)cc3)nn12)N1CCCC1	19	14
CCc1cc(=O)[nH]c(-n2nc(C)cc2NC(=O)C2CC2)n1	-7	-6
C=CCn1cnc2c(c1=O)c1nc3ccccc3nc1n2CCC(C)C	-3	-4
CCc1nc(C)c(C(=O)N(C)Cc2csc(C(C)C)n2)o1	1	-2
CCN(CC)S(=O)(=O)c1ccc(C(C)NCc2sccc2C)cc1 (stereo not given)	2	-1
CCOc1nc(-c2ccc(C)cc2)n(-c2cccc(NC(=O)c3cccc([N+](=O)[O-])c3)c2)n1	18	33
